Rango release inh: prevents RanGTP from dissociating the Rango-importin beta complex; O95149+P62826; Biochemical FRET Rango-importin beta, RanGTP-induced dissociation; Potency, µM (top dose mostly 46.1 µM), for the others: at the highest dose activity change, negative = inhibition; hit rate 0.071% among 340,000; active means falling FRET ratio curve, often poorly fitted, with flat reads before Ran was added; inconclusive means other falling curves, or compound fluorescence or quenching; inactive means flat or rising ratio curve;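 further: potency means the concentration at half of the fitted maximal effect; % of control where 0% means no effect; nearly all actives have a fitted effect of over 45% in size; -100% = wells without RanGTP and RCC1; the record marks most hits as doubtful in a second field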
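Rango (0.1 uM)–importin beta (0.25 uM) complex; RanGTP-RCC1 trigger; 45 min RT; CFP/YFP FRET read.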
Rango-impB inh: Rango-importin beta binding inhibition; Q14974; Rango CFP/YFP FRET sensor + importin beta, 45 min; Potency, µM (series often up to 92.2 µM), for inactives: top-dose inhibition of complex formation; hit rate 0.031% among 340,000; active = rising FRET ratio curve, often small or poorly fitted; inconclusive = mostly compound fluorescence or quenching in the first reads; inactive = flat curves in all reads;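 further: potency means the concentration at half of the fitted maximal effect; 0% = DMSO wells and 100% = buffer wells lacking importin beta; nearly all actives have a fitted effect of over 15% in size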
Target sequence (Q14974 whole entry, looked up): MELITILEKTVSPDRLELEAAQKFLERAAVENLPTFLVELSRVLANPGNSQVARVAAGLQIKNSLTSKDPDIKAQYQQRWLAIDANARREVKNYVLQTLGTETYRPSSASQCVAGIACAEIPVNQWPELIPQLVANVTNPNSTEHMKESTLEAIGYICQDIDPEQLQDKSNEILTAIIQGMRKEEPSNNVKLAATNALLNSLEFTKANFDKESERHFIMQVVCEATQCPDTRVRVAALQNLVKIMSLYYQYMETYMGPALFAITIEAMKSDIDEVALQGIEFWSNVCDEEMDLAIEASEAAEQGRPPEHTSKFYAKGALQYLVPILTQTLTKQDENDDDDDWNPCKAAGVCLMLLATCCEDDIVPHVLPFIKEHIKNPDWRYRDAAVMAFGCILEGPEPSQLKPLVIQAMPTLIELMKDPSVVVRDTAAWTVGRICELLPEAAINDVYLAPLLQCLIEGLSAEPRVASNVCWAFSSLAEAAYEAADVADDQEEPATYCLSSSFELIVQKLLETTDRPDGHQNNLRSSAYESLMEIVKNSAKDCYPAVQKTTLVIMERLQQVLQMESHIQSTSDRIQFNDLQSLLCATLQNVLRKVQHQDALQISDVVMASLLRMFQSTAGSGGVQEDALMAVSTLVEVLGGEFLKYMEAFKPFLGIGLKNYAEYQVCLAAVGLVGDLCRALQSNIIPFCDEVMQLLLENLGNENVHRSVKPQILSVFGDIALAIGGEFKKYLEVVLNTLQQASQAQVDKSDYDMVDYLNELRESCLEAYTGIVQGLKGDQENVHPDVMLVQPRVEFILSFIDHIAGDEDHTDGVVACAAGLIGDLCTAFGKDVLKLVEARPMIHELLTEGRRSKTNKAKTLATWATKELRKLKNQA
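FRET biosensor Rango (snurportin 1 IBB between N-terminal EYFP and C-terminal Cerulean), 50 nM in PBS/1 mM DTT/0.02% Tween-20/0.1% BSA, preincubated 5 min RT with compound; 0.125 microM importin beta added, 45 min RT, CFP/YFP FRET ratio read.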
miR-21 FLuc: miR-21 reporter, rising signal | 340,000 tested, under 10 active | Potency, µM (titrated, usually from 38.3 µM), for inactives: top-dose reporter change, positive = more light | HeLa miR-21 FLuc reporter, luciferase, 48 h; active = well fitted rising curve with a large enough effect; inconclusive = small, poorly fitted or top-dose-only effect; inactive = no such curve, though single readings can be large or run the other way;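 further: % of control where 0% means no effect; miR-21 action dims this reporter so a rising signal means less miR-21 action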
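HeLa miR-21-FLuc reporter line, endogenous miR-21; 2000 cells/well in DMEM/10% FBS; compound titration up to ~40uM final, 48 h, 37 degree Celsius; luciferase detection reagent, 15 min lysis, CCD luminescence.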
GLA inh pH 4.5: blocks human alpha-galactosidase A at pH 4.5; P06280; purified enzyme, 4-MU-alpha-Gal fluorescence, pH 4.5; activity change, negative = inhibition, % at 105 µM; 230,000 tested, under 10 active; AID 1467; inconclusive = small, poorly fitted or top-dose-only inhibition, or a rising curve; inactive = flat fitted curve, though single readings scatter; no compound was filed as active;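 further: 0% = full activity with enzyme and -100% = basal without enzyme; dose as in the result columns while the protocol names 77 µM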
Active calls of the source: *; ? = inconclusive; . = no result given; & = joins results of further samples.

SMILES,Rango release inh,Rango-impB inh,miR-21 FLuc,GLA inh pH 4.5
Cc1cccc(N2CCN(C(=O)[C@H](C)N3C(=O)C4CC=CCC4C3=O)CC2)c1C (stereo not given in full),-1%,-0.7%,.,.
CCN1C(=O)c2ccc(C(=O)Nc3ncc(C)s3)cc2C1=O,3%,-6.0%,-22%,0
O=C(CNC(=O)c1ccccn1)N/N=C/c1ccccc1,4%,-2.0%,-16%,3
N#CCCn1nc(-c2ccc(Br)cc2)cc1Nc1ccccc1NC(=O)C(F)(F)F,14%,-2.7%,2%,-8
COc1ccc(-c2cc(=O)oc3c(C)c(OC(C)C(=O)Nc4ccc(CN5CCOCC5)cc4)ccc23)cc1 (stereo not given),0%,-1.6%,-2%,.
COc1ccc(NC(=O)CSc2nnc(-c3ccncc3)o2)c(OC)c1,18%,-4.9%,.,.
CC(C)(C)NC(=S)NCc1ccco1,-23%,-0.3%,-6%,1
Cc1ccc(NS(=O)(=O)c2cccc(C(=O)NNC(=O)c3cccn3C)c2)c(C)c1,-1%,-1.1%,-23%,.
CN(CC(=O)Nc1cccc(F)c1)C(=O)CC1CCCC1,9%,0.3%,.,.
Cc1ccc(CN2C3CCCC2CC(NC(=O)c2ccc(C)cc2)C3)cc1 (stereo not given),8%,2.1%,4%,2
CCOc1cc(C=C(C(=O)OC)C(=O)OC)ccc1OCc1ccc([N+](=O)[O-])cc1,17%,0.6%,?,-3
O=C(OCc1cc2ccccc2[nH]c1=O)C1CCCCC1,-6%,-1.2%,0%,0
O=C(/C=C/c1ccco1)OCC(=O)c1cccc([N+](=O)[O-])c1,-23%,1.3%,-5%,.
O=C(O)CC[C@@H](C(=O)O)N1C(=O)c2ccccc2C1=O,1%,-2.0%,0%,-1&1
O=C(c1ccco1)N(Cc1ccc([N+](=O)[O-])cc1)c1ccc(Cl)cc1,1%,-2.5%,-1%,-13
Cc1cccc(OCC(=O)Nc2cccc(-c3nnc(-c4ccccc4)o3)c2)c1C,6%,-2.2%,-5%,0
O=C(Cc1cccc(NC(=O)C2CCCN(C(=O)C3CC3)C2)c1)Nc1ccc(C(=O)N2CCOCC2)cc1 (stereo not given),3%,2.9%,.,.
CN1C(=O)C(=O)/C(=C(/O)c2ccccc2)C1c1ccc(Br)cc1 (stereo not given),4%,-1.8%,-3%,.
CCCCN1C[C@H](CO)Oc2cccc(F)c2S1(=O)=O,8%,0.0%,.,.
CCN(C[C@H]1N[C@@](Cc2ccccc2)(C(=O)OC)[C@H]2C(=O)N(C)C(=O)[C@@H]12)C(=O)C1CCCCC1,-4%,0.3%,.,.

Other records
SMILES,Rango release inh,Rango-impB inh,miR-21 FLuc,GLA inh pH 4.5
CC1CN(S(=O)(=O)c2ccc(C(=O)Nc3ccc(S(=O)(=O)N4CCOCC4)cc3)cc2)CC(C)O1 (stereo not given),-8%,1.3%,18%,.
CC1CCN(C(=S)NC(=O)c2cccc([N+](=O)[O-])c2)CC1,9%,-1.1%,-2%,.
COc1ccc(/C=N/NC(=O)c2cccc(NC(=O)c3ccccc3Cl)c2)cc1OC,13%,1.3%,2%,-8
Cc1ccc(CNC(=O)C2CCCN(S(=O)(=O)c3cccc4nonc34)C2)cc1 (stereo not given),2%,1.9%,4%,.
O=C(CCC1CCCC1)Nc1ccc(Br)cn1,13%,3.1%,-33%,-1
Cc1ccccc1C(=O)Nc1ccnn1C1CCN(Cc2c(C)n(C)c3ccccc23)CC1,-4%,-0.5%,-2%,.
CCOc1ccc(C(=O)NCC(=O)OCc2c(F)cccc2Cl)cc1,-4%,-0.1%,-7%,-3
CC(=O)OC(=C(OC(C)=O)c1ccccc1)c1ccccc1,-13%,7.8%,.,.
CN1CCN(c2ccccc2NC(=O)c2ccc(-c3ccc(Cl)cc3Cl)o2)CC1,1%,0.5%,17%,1
O=C(O)c1ccc(CSCc2ccco2)cc1,7%,1.9%,-6%,3
Cc1ccc(CN2CCN(CC(=O)NCc3ccc(Cl)cc3)C2=O)cc1,-4%,-5.6%,6%,0
CC(C1CC1)N(C(=O)c1ccccc1O)c1ccccc1 (stereo not given),-10%,2.8%,6%,3
Cc1ccsc1C=Nc1c(C)n(C)n(-c2ccccc2)c1=O,11%,-2.5%,0%,-10
COc1cc(C2/C(=C(\O)c3ccc4c(c3)CC(C)O4)C(=O)C(=O)N2CC2CCCO2)cc(OC)c1OC (stereo not given),2%,-1.9%,-2%,.
Cc1ccc(CS(=O)(=O)Cc2ccc(C(=O)NC3CCCCCC3)o2)cc1,-3%,-1.2%,3%,.
NS(=O)(=O)Oc1ccccc1,-11%,2.5%,-1%,.
CC1CCCC(NC(=O)COC(=O)CCC2CCCC2)C1C (stereo not given),2%,0.0%,-1%,4
CCOC(=O)c1c(N2C(=O)Nc3ccccc3N2O)n[nH]c1-c1cccc(OC)c1,2%,2.3%,3%,10
CN(c1ccccc1C(=O)Nc1cccc([N+](=O)[O-])c1)S(C)(=O)=O,-8%,4.2%,-2%,1
CN1CCN(c2ccc(C(F)(F)F)cc2NC(=O)c2ccco2)CC1,14%,-1.1%,-9%,.

Further entries follow.
SMILES,Rango release inh,Rango-impB inh,miR-21 FLuc,GLA inh pH 4.5
c1csc(CNc2ccc3c(c2)OCCO3)c1,-2%,?,-14%,3
CCOP(C)(=O)C1(C(=O)OCc2ccccc2)CC1 (stereo not given),-8%,-1.4%,2%,-5
CN(C)C(CNC(=O)CCCc1c[nH]c2ccccc12)c1ccco1 (stereo not given),1%,-5.4%,-13%,2
Cc1ccc(NC(=S)Nc2ccc(F)cc2)c(C)c1,-1%,-0.4%,0%,-4
CCOC(=O)c1c(/N=C/c2ccc(OC)cc2O)sc2c1CCN(C)C2,?,?,-5%,-7
COc1ccc(NC(=O)CN2CCCCC2)cc1S(=O)(=O)N1CCCCC1,11%,-0.6%,.,.
CCOC(=O)CSc1nnc(CNC(=O)c2cccs2)n1-c1cc(OC)ccc1OC,-6%,2.5%,-7%,-3
O=C1Nc2ccccc2/C1=C/C(=O)c1cccs1,-4%,0.3%,?,-6
COc1ccc(S(=O)(=O)N2C[C@H]3CON(C)[C@H]3C[C@H]2c2cccc(Br)c2)cc1,1%,1.5%,.,.
COc1ccc(C(=O)NCc2nnc(SCC(=O)Nc3ccc4c(c3)OCO4)o2)cc1,-4%,2.9%,0%,-1
CCCCCn1c(SCC2CCCO2)nc2cc(C(=O)N3CCC(C(N)=O)CC3)ccc2c1=O (stereo not given),11%,4.2%,16%,-2
COc1ccc2cc(C=NS(=O)(=O)c3ccc(C)cc3)n(C)c2c1,-8%,-1.2%,.,.
CCC(C)Sc1ccc([C@H]2N[C@@](Cc3ccccc3)(C(=O)OC)[C@H]3C(=O)N(CC)C(=O)[C@@H]23)cc1 (stereo not given in full),9%,-1.1%,.,.
CSc1sccc1/C=N/NC(=O)c1ccncc1,2%,0.3%,-14%,4
O=C(COc1cccc2ccccc12)NNC(=O)CSCCO,-1%,-1.9%,-2%,-1
CN(CC(=O)Nc1ccc(F)cc1)C(=O)C1CCCC1,0%,1.0%,.,.
COc1cc(/C=C/C(=O)OCC(=O)Nc2cc(C)c(C)cc2[N+](=O)[O-])ccc1O,-3%,-2.5%,-2%,2
Cc1ccc(N(CC(=O)NCc2ccccc2)C(=O)CCC(=O)Nc2ccccn2)c(C)c1,-3%,3.9%,-1%,.
O=[N+]([O-])c1ccccc1/C=N/Nc1nccnc1Cl,-3%,-1.6%,-52%,-3
CC1(C)NC(=O)N(Cc2cc(=O)n3ccsc3n2)C1=O,-1%,0.8%,-5%,2

More structures
SMILES,Rango release inh,Rango-impB inh,miR-21 FLuc,GLA inh pH 4.5
CCOc1c(Cl)cc(CNCC(O)c2ccccc2)cc1OC (stereo not given),0%,-2.3%,-12%,-10
O=C(COc1ccc2ccc(=O)oc2c1)NC1CCN(Cc2ccccc2)CC1,4%,-0.7%,3%,.
CCc1ccc(Nc2nc(N)nc(CSc3nc4ccccc4s3)n2)cc1,6%,-3.7%,-24%&-9%,-3
Cc1ccc(C(=O)/C=C/N(C)C)cn1,11%,3.2%,-6%,4
COc1ccc(-c2csc3ncnc(N4CCN(Cc5ccccc5)CC4)c23)cc1,-15%,-1.1%,-4%,.
Cn1cnnc1Sc1nc2c(c(=O)n(C)c(=O)n2C)n1Cc1ccccc1Cl,-6%,-1.0%,-3%,-17
O=C1C2C3C=CC(CNS(=O)(=O)c4ccccc4[N+](=O)[O-])(O3)C2C(=O)N1c1ccccc1 (stereo not given),5%,-4.7%,0%,-3
O=S(=O)(NC1CCCCC1Nc1ccc(Cl)cc1)c1ccccc1 (stereo not given),2%,-0.8%,4%,0
CCOc1ccccc1NC(=S)N1CCC(NC(=O)NC23CC4CC(CC(C4)C2)C3)CC1,1%,-1.1%,-2%,2
N#C/C(=C\c1cccnc1)C(=O)Nc1cccc2ccccc12,-2%,-0.3%,0%,4
N#Cc1nc(COc2cccc(Cl)c2)oc1NCCN1CCOCC1,-29%,?,-1%,3
CN(C)c1cc(-c2cccc(C(F)(F)F)c2)oc(=O)c1Cl,-4%,3.4%,.,.
C/[N+]([O-])=C1\Cc2ccccc2C1=O,13%,4.3%,-3%,14
Cc1ccc(/C=N/NC(=O)c2cccc(S(=O)(=O)Nc3ccccc3Cl)c2)o1,-5%,-4.8%,-15%,2
CN(C)c1ccc(C(=O)N=c2sccn2C)cc1[N+](=O)[O-],-9%,3.1%,-44%,.
COc1ccc(C=NNc2ccc([N+](=O)[O-])cc2S(=O)(=O)Nc2ccccc2C(=O)O)cc1OC,?,?,.,.
COc1ccc(Nc2nc3cc(C)ccc3cc2C#N)c(OC)c1,0%,?,24%,11
COc1ccccc1NS(=O)(=O)NC(=O)c1c(C)[nH]c2ccccc12,-2%,1.3%,-1%,.
CC(C)Cc1nnc(NC(=O)c2ccc(S(=O)(=O)N3CCCC3)cc2)s1,-11%,0.5%,.,.
COc1ccc(SC[C@H](Cc2ccccc2)N2CC[C@@H](C(C)(C)C)CCC2=O)cc1,-15%,0.2%,.,.

Ordered by length of the SMILES (descending): part of the list above
SMILES,Rango release inh,Rango-impB inh,miR-21 FLuc,GLA inh pH 4.5
COc1ccc(-c2csc3ncnc(N4CCN(Cc5ccccc5)CC4)c23)cc1,-15%,-1.1%,-4%,.
O=C(O)CC[C@@H](C(=O)O)N1C(=O)c2ccccc2C1=O,1%,-2.0%,0%,-1&1
O=C(COc1cccc2ccccc12)NNC(=O)CSCCO,-1%,-1.9%,-2%,-1

(continued)
SMILES,Rango release inh,Rango-impB inh,miR-21 FLuc,GLA inh pH 4.5
Cc1cccn2c(=O)c(C=O)c(N3CCSCC3)nc12,-16%,2.9%,-4%,-5
O=C(c1ccco1)N1CCN(C(c2ccc(Cl)cc2)c2nnnn2CC2CCCO2)CC1 (stereo not given),1%,1.4%,2%,-6
Cc1ccc(N2CC(C(=O)Nc3ccccc3C(=O)NC3CCCCC3)CC2=O)cc1 (stereo not given),1%,2.8%,-5%,1
COc1cccc(NC(=O)CN2C(=O)CSc3nc(C)cc(C)c32)c1,-12%,-0.8%,-14%,.
NC(=O)c1ccccc1NS(=O)(=O)c1ccc(S(=O)(=O)N2CCCC2)cc1,42%,2.9%,.,.
NS(=O)(=O)c1ccc(N2N=C(c3ccccc3)CC2c2ccccc2Cl)cc1 (stereo not given),2%,0.2%,.,.
O=C1c2cccc3cccc(c23)C(=O)N1CC1CCN(S(=O)(=O)c2ccc(F)cc2)CC1,-13%,1.6%,-3%,19
COc1ccccc1-c1nnc(SC)n1C,-4%,-0.9%,0%,11
CC1CCCCC12NC(=O)N(CC(=O)Nc1ccc3[nH]c(=O)[nH]c3c1)C2=O (stereo not given),0%,2.9%,.,.
CN(C)S(=O)(=O)c1ccc(Cl)c(NC(=O)COC(=O)/C=C/c2ccc(S(=O)(=O)N3CCOCC3)cc2)c1,-1%,-2.5%,2%,-3
O=C(OCC(=O)N1CCN(Cc2ccccc2)CC1)c1cc(Cl)ccc1[N+](=O)[O-],-4%,0.3%,.,.

Screening results: PubChem BioAssay, National Center for Advancing Translational Sciences (NCATS)

Only part of the results is shown. The share of hits here may be higher or lower than overall.
